D2 ag: human D2 receptor agonism in beta-arrestin assay; P14416; DiscoveRx PathHunter D2 beta-arrestin, luminescence, 90 min; 100% = 57 uM dopamine signal; activation, % (test concentration not listed); actives 0.084% (n = 360,000); in the data active = activation above about 40%; inconclusive = about 15% to 40%; inactive = below about 15%; note: compound concentration not given in the record; the text of the record calls up to 30% inactive
Target sequence (P14416 whole entry, looked up): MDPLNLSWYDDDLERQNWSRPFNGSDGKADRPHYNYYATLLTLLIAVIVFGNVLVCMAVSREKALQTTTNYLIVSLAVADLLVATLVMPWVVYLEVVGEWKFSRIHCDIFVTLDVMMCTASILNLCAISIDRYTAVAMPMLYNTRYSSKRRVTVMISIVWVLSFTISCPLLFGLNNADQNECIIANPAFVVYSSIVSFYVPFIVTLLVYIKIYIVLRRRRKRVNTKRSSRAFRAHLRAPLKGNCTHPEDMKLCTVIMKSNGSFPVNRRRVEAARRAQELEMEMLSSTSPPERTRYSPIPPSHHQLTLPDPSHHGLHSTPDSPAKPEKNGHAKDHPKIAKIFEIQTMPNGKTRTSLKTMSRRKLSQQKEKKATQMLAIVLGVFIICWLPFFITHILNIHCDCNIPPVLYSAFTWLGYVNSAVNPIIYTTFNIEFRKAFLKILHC
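Agonist mode: compounds alone added to overnight-plated D2 PathHunter cells for 90 min at 37 C, with 57 uM final dopamine (EC100) defining full response. Beta-arrestin recruitment detected by chemiluminescent reagent, read after 1 h at ambient temperature.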
ClpP mod: qHTS Assay for Activators of ClpP; Potency, µM (doses to about 57.5 µM), inactives show at the top dose activity change, negative = active; ATP-dependent Clp protease proteolytic subunit (Bacillus subtilis (strain 168)), P80244; purified B. subtilis ClpP, FRET peptide cleavage, 20 min; actives 1.9% (n = 340,000); active = well fitted falling curve with a large enough effect; inconclusive = small, poorly fitted or top-dose-only effect; inactive = no such curve, though single readings can be large or run the other way; note: potency is the fitted concentration of half-maximal effect; the source files actives as falling curves though it sought activators and does not explain the sign; nearly all actives have a fitted effect of over 65% in size; many hits overshoot -100%
Target sequence (P80244 whole entry, looked up): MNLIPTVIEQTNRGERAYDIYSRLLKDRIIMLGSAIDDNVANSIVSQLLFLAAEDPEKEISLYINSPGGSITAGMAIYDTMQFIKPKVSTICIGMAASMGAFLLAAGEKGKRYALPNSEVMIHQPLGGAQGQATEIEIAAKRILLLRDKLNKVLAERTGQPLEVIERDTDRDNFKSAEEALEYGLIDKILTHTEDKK
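ClpP 10 microg/mL final, pH 8 Tris/KCl buffer with BSA, glycerol, Tween-20; compound pinned in; FRET-FV substrate; RT 20 min; Ex320/Em430; ΔFRET vs ADEP 5.8 microM, DMSO, no enzyme.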
Menin-MLL FL inh: displaces fluorescein MLL peptide from human menin; Fluorescence polarization, fluorescein-MLL peptide displacement from menin; FP activity change, % at 61.4 µM; 290,000 tested, under 10 active; inconclusive = falling polarisation curve, or a change in total fluorescence; inactive = total fluorescence flat and polarisation flat or rising; no compound was filed as active; the % refers to the polarisation; negative = inhibition;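 note: % of control where 0% means no effect; inhibitors lower the polarisation; unlabelled MLL peptide was the positive control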
Sfp PPTase inh: inhibitors of Bacillus subtilis Sfp phosphopantetheinyl transferase. actives 3.5% (n = 310,000). Q9F4F7. Biochemical Sfp PPTase activity, qHTS. Potency, µM, without a hit: max response, negative = inhibition, hits mostly inhibitors; active = well fitted inhibition curve with a large enough effect; inconclusive = small, poorly fitted or top-dose-only effect, or another doubt; inactive = no such curve, though single readings can be large or run the other way;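 note: the enzyme is Sfp with the accession as filed and its product quenches rhodamine fluorescence; potency is the fitted concentration of half-maximal effect; 0% = enzyme reaction without inhibitor and -100% = no enzyme wells; top concentration of the series not given in the record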
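Step 1, compound plus 15 nM Sfp-PPTase, 15 min, room temperature. Step 2, add rhodamine-CoA (5 uM) and BHQ-2-YbbR (12.5 uM). Step 3, read 525/598 nm fluorescence at 0 and 30 min.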
gsp antag: gsp mutant antagonism | gsp-mutant cells, cAMP HTRF, 30 min; control for the full effect not named in the record | Potency, µM (doses to about 76.9 µM), inactives show at the top dose activity change, negative = inhibition, hits mostly inhibitors | actives 0.4% (n = 340,000); active = falling curve of any shape with a large fitted effect; inconclusive = falling curve, mostly with a smaller effect; inactive = flat or rising curve; cell line not stated here;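 note: intracellular cAMP measured with PDE inhibitor Ro 20-1724 present during compound exposure; potency is the fitted concentration of half-maximal effect; % is set by controls: 0 for no effect and ±100 for the full control effect; nearly all actives have a fitted effect of over 65% in size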
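HTRF cAMP measurement after 30 min RT detection following 30 min, 37C compound treatment alongside […] (added as 300 uM solution) in G418-selected cells seeded at 2000/well and grown 16–24 h.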
gsp ag: activates gsp, the McCune-Albright syndrome mutation | AID 624287 | gsp mutant cells, cAMP HTRF, 30 min; control for the full effect not named in the record | actives 0.13% (n = 340,000) | Potency, µM (series often up to 76.9 µM), for inactives: top-dose activation (cAMP increase), usual class: activators; active = well fitted activation curve with a large enough effect; inconclusive = small, poorly fitted or top-dose-only effect, or another doubt; inactive = no such curve, though single readings can be large or run the other way; cell line not stated here;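 note: phosphodiesterase inhibitor Ro 20-1724 added with compounds to block cAMP breakdown; potency is the fitted concentration of half-maximal effect; nearly all actives have a fitted effect of over 60% in size; about a fifth of the inactives were tested at one dose only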
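Cells stably selected in G418 were plated at 2000/well, grown 16-24 hr, then given compounds in DMSO with the PDE inhibitor […] (300 uM solution added) for 30 min at 37C; cAMP was read by HTRF.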
PINK1 expr mod: modulators of PINK1 expression; Potency, µM (series often up to 76.6 µM), inactives show top-dose activation (PINK1 increase), usual class: activators; PINK1 immunofluorescence, high-content cytometry, 24 h; AID 624263; actives 0.2% (n = 410,000); active = well fitted activation curve with a large enough effect; inconclusive = small, poorly fitted or top-dose-only effect; inactive = flat fitted curve, though single readings scatter; cell line not stated here;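 note: potency is the fitted concentration of half-maximal effect; % of control where 0% means no effect; nearly all actives have a fitted effect of over 65% in size; a mitochondrial uncoupler was the plate control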
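A stable cell line was treated with compounds at 5 concentrations for 24 hours, with CCCP as control. PINK1 levels and mitochondrial localization were measured by immunofluorescence with mitochondrial, cell and nuclear markers after fixation, read by laser-scanning cytometry.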
Starred values were filed as active, the others as inactive; ? = inconclusive; . = not tested or not shown; & = joins results of further samples; [ ] = another dose, or the depositor's remark. Rows were taken by chance; about 5.1% have a hit in one of these screens.

item	Molecule	Sfp PPTase inh	gsp ag	D2 ag	ClpP mod	PINK1 expr mod	Menin-MLL FL inh	gsp antag
1	CC12CN(C(=O)c3ccccc3Br)CC(C)(CN(C(=O)c3ccccc3Br)C1)C2=O	9%	16%	0.9	.	0.8%	0.0	3%
2	COc1cc(-c2ncc3ccccn23)cc(OC)c1OC	50µM*	?	1.9	?	13%	3.3	-11%
3	Cc1ccccc1OCC(=O)N(Cc1nnc(-c2ccc(Cl)cc2)o1)C(C)C	.	15%	-3.8	-2.5%	1.7%	.	?
4	COc1ccc(Nc2nc(Cl)nc(Nc3ccc(OC)cc3OC)n2)c(OC)c1	9%	-10%[15.4 µM]	6.3	.	2.9%	-15	-61%
5	COc1ccc(CC2(CO)CCN(C(=O)NCc3ccccc3)CC2)cc1	17%	-8%[15.4 µM]	-1.6	.	-0.3%	-2.2	4%
6	CCOC(=O)C1CCN(C(=O)c2oc3ccc4c(c3c2C)C(O)CC2(CCCCC2)O4)CC1 (configuration not stated)	6%	-1%	5.6	-10%	-0.5%	0.3	0%
7	Cc1sc(NC(=O)c2ccco2)c(CN2CCN(Cc3ccccc3)CC2)c1C	-9%	-6%	-0.1	.	6.4%	2.1	-16%
8	C=CCc1c(OC(C)=O)c2ccccc2n(C)c1=O	-11%	6%	1.2	-6.5%	0.5%	7.9	-14%
9	COc1ccc(NC(=O)CSc2nc3c(sc4ccccc43)c(=O)n2CCCN2CCCC2)cc1	-13%	-1%	-4.4	4.3%	1.0%	.	-2%
10	CCNC(=S)N1CCN(CCN=CC2=C(O)CC(c3cccs3)CC2=O)CC1 (configuration not stated)	24%	1%	0.5	-0.8%	2.3%[38.3 µM]	3.1	2%
11	CC(C)Cc1nn2c(=O)cc(CSCC(=O)Nc3ccccc3F)nc2s1	8%	41%	-1.4	-0.1%	-0.1%	.	-24%
12	CCOc1ncccc1C(=O)N(CC)CC(=O)NCc1ccc(F)cc1	6%	25%	-2.4	.	-0.3%	-1.3	6%
13	Cc1ccc(-n2c(SCC(=O)N3CCCCC3)nc(O)c(Cc3ccccc3)c2=O)cc1	5%	-1%	-1.2	-2.8%	-0.2%	.	-16%
14	C#CCSc1nnc(-c2ccc(O)cc2)o1	4%	?	-2.7	.	-1.1%	2.5	7%
15	CCCC(=O)Nc1cc(-c2cn3cccnc3n2)ccc1OC	24%	26%	-4.5	?	5.5%[38.3 µM]	-1.8	0%
16	CSc1ccccc1NC(=O)COc1ccc(Cl)cc1	-10%	-17%[15.4 µM]	-5.2	-1.0%	0.1%	8.1	-6%
17	CC(C)[C@H](NS(=O)(=O)c1ccccc1)C(=O)OCC(=O)NCc1ccc2c(c1)OCO2	.	-21%	-2.8	.	-1.1%	.	-8%
18	Cc1ccc(NS(=O)(=O)c2ccc3[nH]c(=O)oc3c2)cc1Cl	.	-12%	1.0	0.3%	2.4%	.	-10%
19	Nc1nc2c(ncn2[C@H]2C[C@H](O)[C@@H](CO)O2)c(=O)[nH]1	.	.	-4.0	0.7%&0.3%	2.3%&-0.1%	.	-2%
20	Cc1c(C(=O)NCc2ccco2)oc2ccc(Br)cc12	.	21%	-4.7	-5.2%	-0.2%	.	-12%
21	Cn1c(=O)c2nnn(/N=C(\c3ccccc3)C3CC3)c2n(C)c1=O	-28%	5%	-1.8	-1.4%	1.4%	-3.3	-5%
22	Cc1ccc2oc(C(=O)N(Cc3ccc(N(C)C)cc3)CC3CCCO3)c(C)c2c1 (configuration not stated)	-10%	3%	6.8	-1.3%&-6.7%	4.1%&1.8%	.	-22%
23	CCc1ccc(N2C(=O)/C(=C/c3cccs3)N(CC(=O)OC)C2=S)cc1	21%	8%	-1.0	-2.7%	?	0.6	-1%
24	C/C(CCC(C)C)=N\Nc1ccc(S(N)(=O)=O)cc1[N+](=O)[O-]	-12%	-26%	-0.1	-1.1%	12%	-0.5	-3%
25	O=C(O)c1cccc(NS(=O)(=O)/C=C/c2ccccc2)c1	2%	-13%	-2.9	-0.3%	0.2%	-0.2	-8%
26	Cc1noc(/C=C/c2ccc(-c3ccccc3Cl)o2)c1[N+](=O)[O-]	-9%	27%	-1.0	0.6%	?	?	2%
27	CCOC(=O)Cc1csc(NC(=O)c2ccc(Cl)nc2)n1	6%	-21%	2.4	-1.2%	17%[38.3 µM]	15	-28%
28	Cc1ccc(S(=O)(=O)NN2C(=O)/C(=C/c3cccc(F)c3)SC2=S)cc1	-1%	0%	-1.8	-0.9%	-0.5%	-4.3	?
29	O=C(NCCN1CCCC1)c1cc(-c2ccncc2)nc2ccc(S(=O)(=O)N3CCOCC3)cc12	23%	-27%	2.0	0.3%	-0.8%	-1.1	18%
30	CCCOc1c(Br)cc(C(=O)OCC(=O)NC2CC2)cc1OC	.	42%	-3.3	0.7%	9.8%	.	-10%
31	Cc1ccc(-n2cc(CNC(C)c3cnn(C)c3)c(-c3ccc(F)cc3)n2)cc1 (configuration not stated)	12%	-2%[15.4 µM]	-2.3	.	0.4%	-0.9	-10%
32	CN(CC(=O)O/N=C(\N)c1ccc([N+](=O)[O-])cc1)S(=O)(=O)c1ccccc1	1%	13%	3.7	1.7%	?	1.2	-26%
33	COC(=O)Cc1ccc(NC(=S)NC2CC2)cc1	14%	20%[15.4 µM]	3.6	-8.3%	-0.8%	6.6	-2%
34	CC1SC(c2ccc(Cl)cc2Cl)NC1=O (configuration not stated)	8%	20%	-1.1	-1.4%	-2.1%	-1.6	2%
35	C=CCSc1nc2sc3c(c2c(=O)n1-c1ccc(C)cc1)CCN(C)C3	-1%	?	-1.5	-21%	-0.2%	20	-7%
36	CCCCOc1ccc(NS(=O)(=O)c2ccc(-n3cnnn3)cc2)cc1	17%	?	2.8	1.9%	0.6%	.	1%
37	Cc1cccc(/C=N/NC(=O)C(C)Nc2cccc3ccccc23)n1 (configuration not stated)	-15%	-17%	2.5	-2.4%	.	?	-12%
38	CCOC(=O)CN1N=C(/C=C/c2ccc(C)cc2)CCC1=O	27%	-60%[inhibitor]	-3.8	-2.1%	1.6%	2.6	-5%
39	C=CCN1C(=O)CSc2ccc(C(=O)OCC)cc21	6%	?	1.1	-2.8%	-1.2%[38.3 µM]	0.5	-9%
40	CCN(CC)c1ccc2cc(C=O)c(=O)oc2c1	12%	-38%[inhibitor]	-2.5	-21%	5.6%	?	-11%
41	O=C(/C=C/c1cccc([N+](=O)[O-])c1)N1CCN(C(=O)c2ccco2)CC1	13%	-9%[15.4 µM]	-2.8	-1.4%	-2.6%	2.6	7%
42	COCCCNC(=O)CN(c1cc(C(F)(F)F)ccc1Cl)S(C)(=O)=O	13%	12%	-3.1	0.4%	0.1%	-2.4	5%
43	Nc1ncc(-c2ccc([N+](=O)[O-])cc2)cn1	-6%	-4%	-1.2	-2.4%	-0.8%	-3.0	6%
44	COc1ccc(NC(=O)CS(=O)CC(=O)Nc2cccnc2)cc1 (configuration not stated)	22%	-4%[15.4 µM]	-2.4	.	2.0%	-0.5	24%
45	Cc1ccc(Cn2c(CCNc3nc(-c4ccc(Cl)c([N+](=O)[O-])c4)cs3)nc3cc(C(=O)NCCCO)ccc32)cc1	.	8%	3.3	-3.3%	-0.1%	.	-5%
46	CN(C(=O)CSc1nc(-c2ccc(C(C)(C)C)cc2)c(C#N)c(=O)[nH]1)C1CCCCC1	-7%	7%	-2.0	-2.3%	1.1%	18	?
47	Cn1c(NCc2ccco2)nc2c1c(=O)n(Cc1ccc(Cl)c(Cl)c1)c(=O)n2C	6%	11%	0.8	3.4%	7.0%	5.3	2%
48	O=C(c1ccco1)N1CCN(C(=O)c2cc(Cl)nc3ccccc23)CC1	.	?	-1.1	-0.9%	-0.9%	.	-1%
49	O=C(Nc1cccc(S(=O)(=O)N2CCCCC2)c1)c1ccc(S(=O)(=O)C(F)F)cc1	14%	-4%[15.4 µM]	1.0	-3.6%	-0.2%	3.2	-22%
50	O=C(Cn1cnc2c(NC(=O)OCc3ccccc3)ncnc21)NCCN1CCOCC1	.	.	-4.5	0.9%	0.3%	.	10%
51	CC(OC(=O)C1CC=CCC1C(N)=O)C(Cl)=C(Cl)Cl (configuration not stated)	20%	-1%	0.1	-2.8%	0.7%	-2.4	-2%
52	CC(C)OC(=O)CSc1nc(N2CCOCC2)c2c(c1C#N)CC(C)(C)OC2	11%	3%	1.8	.	3.0%	2.5	-10%
53	COc1ccc2c(c1)c(=O)oc1c(C)c(OC(C)C(=O)N[C@@H](Cc3c[nH]c4ccc(O)cc34)C(=O)O)ccc12 (some centres not stated)	0%	.	4.5	-12%	2.1%	0.6	-12%
54	Cc1cc2nc(C3CCCCC3)c(Cc3ccccc3)n2c(C)c1Br	.	.	-0.6	-2.7%	29%	.	.
55	CCN(CC)CCNc1nc(-c2ccc(OC(F)F)cc2)c(C)s1	4%	22%	0.3	-2.0%	-1.9%	0.0	6%
56	CS(=O)(=O)N1CCN(c2ccccc2NC(=O)Cc2ccccc2)CC1	27%	0%	0.3	-1.8%	-0.9%	1.3	-6%
57	COc1ccc(NS(=O)(=O)c2csc(C(=O)N3CCCC3)c2)c(OC)c1	0%	3%	2.8	0.2%	1.7%	.	-13%
58	CC(CCc1ccccc1)NC(=O)/C=C/c1ccc(Cl)cc1 (configuration not stated)	11%	19%[15.4 µM]	-4.1	-0.8%	26%	7.3	?
